High-throughput results from PubChem BioAssay.
VCAM-1 down imaging: inhibitors of TNFa-induced VCAM-1 surface display, imaging, high-content imaging, pooled HUVEC, TNFa stimulus (AID 456). HUVEC TNFa-induced VCAM-1 surface expression, immunofluorescence imaging; numbers were filed only for top-ranked candidate wells. one-dose inhibition, % at 5 µM; IC50 in µM for titrated hits. 0.2% of 10,000 active;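 active means top tenth filtered wells with inhibition above zero that passed visual or statistical confirmation; inactive means the rest, including hits rejected on review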;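 further: 0% = stimulated vehicle wells and 100% = unstimulated cells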
VCAM-1 augmentation: enhancers of VCAM-1 display on endothelial cells, imaging, high-content imaging, pooled HUVEC, TNFa stimulus (AID 457) | Pooled HUVEC, TNFa-induced VCAM-1 immunofluorescence imaging; hits of this screen are not shown here | calls only | 0.2% of 10,000 active;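 active means a top-ranked rise in VCAM-1 staining upheld on image or statistical review; inactive means the rest, including candidates rejected on review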;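 further: compounds tested at 5 µM in the well; cells exposed to compound for 24 hours before fixing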
FPR ligand: human FPR ligands by binding competition, primary screen, cell-based, FPRL1 counter-screen, flow cytometry | FPR-expressing cells, fluorescent ligand binding | inhibition, %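 (tested at 6.7 µM)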 | AID 440, 2006 | fMet-Leu-Phe receptor (Homo sapiens), P21462 | 0.74% of 24,000 active;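 further: 0% = buffer wells and 100% = receptor blocker peptide wells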
Target sequence (P21462 whole entry, looked up): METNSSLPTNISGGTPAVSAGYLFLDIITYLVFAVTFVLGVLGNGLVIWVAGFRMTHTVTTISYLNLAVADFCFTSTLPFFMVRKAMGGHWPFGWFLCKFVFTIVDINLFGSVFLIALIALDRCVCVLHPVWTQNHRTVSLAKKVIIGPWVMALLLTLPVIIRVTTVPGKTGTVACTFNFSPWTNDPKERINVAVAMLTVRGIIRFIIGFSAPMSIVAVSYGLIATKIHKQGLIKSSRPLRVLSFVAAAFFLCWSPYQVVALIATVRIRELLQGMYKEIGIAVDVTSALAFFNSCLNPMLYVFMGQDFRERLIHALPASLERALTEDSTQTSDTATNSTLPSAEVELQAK
FPRL1 ligand: human FPRL1 ligands by binding competition, primary screen, cell-based, FPR counter-screen, flow cytometry; FPRL1-expressing cells, fluorescent ligand binding inhibition; 0.3% of 24,000 active; N-formyl peptide receptor 2 (Homo sapiens), P25090; AID 441, 2006; inhibition, %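 (tested at 6.7 µM)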;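 further: 0% = buffer alone and 100% = receptor blocker peptide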
Target sequence (P25090 whole entry, looked up): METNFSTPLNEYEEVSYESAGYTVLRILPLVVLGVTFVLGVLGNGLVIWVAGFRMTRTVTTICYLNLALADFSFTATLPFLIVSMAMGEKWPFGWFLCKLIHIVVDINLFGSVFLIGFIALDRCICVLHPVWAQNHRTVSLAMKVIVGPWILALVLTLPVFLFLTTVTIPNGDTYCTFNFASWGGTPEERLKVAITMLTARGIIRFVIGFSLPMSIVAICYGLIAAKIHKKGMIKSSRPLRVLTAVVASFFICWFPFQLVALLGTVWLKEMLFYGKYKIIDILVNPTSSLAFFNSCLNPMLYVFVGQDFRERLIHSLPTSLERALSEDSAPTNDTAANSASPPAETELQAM
VCAM-1 inhibition: inhibitors of TNFa-induced VCAM-1 surface display, cell-based, plate reader, pooled HUVEC, TNFa stimulus (AID 454). HUVEC TNFa-induced VCAM-1 surface immunofluorescence, plate reader; numbers were filed only for top-ranked candidate wells. inhibition, % at 5 µM. 0.2% of 10,000 active;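 active means compound among top-ranked inhibitors of TNF-induced VCAM-1 adhesion protein staining, with the hit upheld by image or statistical review; inactive means the rest, including hits rejected on review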;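 further: 0% = TNFa with vehicle and 100% = cells without TNFa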
* = called active by the depositor; i = inactive; ? = inconclusive; . = no result given; & = joins results of further samples.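 How the source made its calls, unless noted: active means mean above 30%; inconclusive means self-fluorescent; inactive means the rest.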 This is a subset, so the mix of outcomes need not match the whole.

SMILES	VCAM-1 down imaging	VCAM-1 augmentation	FPR ligand	FPRL1 ligand	VCAM-1 inhibition
CN1CCN(S(=O)(=O)c2ccc3ccccc3c2)CC1	.	.	0	0	.
CC(=O)n1cc(-c2ccncc2)c2ccccc21	i	i	1	-1	i
COc1ccc(-c2cc(C(=O)N3CCCc4ccccc43)no2)cc1	.	.	8	2	.
O=C(c1cc2ccccc2o1)N1CCN=C1SCc1cccnc1	.	.	-3	-4	.
C=CCN1C(=O)C2(C(C(=O)c3ccc(C)o3)=C(O)C(=O)N2CCCN2CCOCC2)c2ccccc21 (stereo unspecified)	.	.	-4	0	.
O=C(CSc1ncnc2c1nnn2-c1ccc(F)cc1)N1CCN(c2ccccc2)CC1	.	.	4	-5	.
CC(=O)C1=C(O)C(=O)N(c2nnn(C)n2)C1c1cccs1 (stereo unspecified)	.	.	-6	-2	.
O=S(=O)(c1cnc[nH]1)N1CCc2ccccc21	.	.	?	33*	.
CS(=O)(=O)c1ccc2nc(NC(=O)C3C4C=CC(C4)C3C(=O)O)sc2c1 (stereo unspecified)	i	i	-2	-3	i
O=c1[nH][nH]c2nc(C(F)(F)F)cc(C(F)(F)F)c12	.	.	0	3	.
Cc1cccc(CN2CCNC2=O)c1	.	.	-3	-2	.
O=C(CCS(=O)(=O)Cc1ccccc1F)N1CCc2ccccc2C1	.	.	0	2	.
O=C(NCCC1=CCCCC1)N[C@@H](Cc1ccccc1)C(=O)O	i	i	0	0	i
O=C(OCc1ccc2c(c1)OCO2)c1ccc(S(=O)(=O)N2CCCCC2)cc1	i	i	1	-5	i
COCCn1c(C)cc(C(=O)COC(=O)c2ccc(N3CCCC3=O)cc2)c1C	i	i	5	-2	i
COc1ccccc1-c1cc(C(=O)Nc2cc(C)nn2-c2ccccc2)no1	i	i	-4	-2	i
CCOC(=O)c1c(C)c(C(=O)N2CCN(c3cccc(Cl)c3)CC2)c(C)n1C	.	.	-8	-10	.
Cc1ccc(Cl)cc1N1CCN(C(=O)C2CCN(S(=O)(=O)c3cnc[nH]3)CC2)CC1	.	.	-3	3	.
Cc1ccc(Cn2nnc3c(=O)[nH]c(C4CCN(S(=O)(=O)c5cc(C)ccc5C)CC4)nc32)cc1	.	.	-6	-2	.
CC(C)(C)NC(=O)C(c1ccco1)N(C(=O)Cn1nnc(-c2ccc(F)cc2)n1)c1ccccc1 (stereo unspecified)	i	i	2	-7	i
O=C1c2ccccc2C(Nc2ccc3c(c2)OCO3)N1Cc1ccc2c(c1)OCO2 (stereo unspecified)	i	i	6	-5	i
CCC(C)(C)NC(=O)CN(Cc1ccc2c(c1)OCO2)C(=O)CCC(=O)Nc1ccccn1	i	i	2	-1	i
C[C@]12CCC(=O)C=C1CC[C@@H]1[C@@H]2[C@@H](O)C[C@@]2(C)[C@H]1CC[C@]2(O)C(=O)CO	i	i	-4	0	i
CCN(CC)c1ncnc2sc(C(=O)N3CCN(c4ccccc4)CC3)c(C)c12	.	.	1	0	.
O=C(CCCn1c(=S)[nH]c2cc3c(cc2c1=O)OCO3)N1CCN(c2ccc(F)cc2)CC1	.	.	1	0	.

(next part)
SMILES	VCAM-1 down imaging	VCAM-1 augmentation	FPR ligand	FPRL1 ligand	VCAM-1 inhibition
Nc1ccc(C(=O)O)c(O)c1	i	i	3&-7	7&-1	i
O=C(O)c1ccc(-c2ccco2)n1Cc1ccccc1	.	.	2	-6	.
COc1ccc(N(CC(=O)Nc2nc3ccc(C)cc3s2)S(=O)(=O)c2c(C)nn(C)c2C)cc1	.	.	-5	-10	.
COc1ccc(CCNC(=O)C2=COCCO2)cc1	i	i	-1	-5	i
COc1ccc(OC)c2[nH]c(=O)c(CCNS(=O)(=O)c3ccc(C)cc3)cc12	.	.	10	15	.
CCC1(c2ccc(F)cc2)NC(=O)N(CC(=O)c2ccc[nH]2)C1=O (stereo unspecified)	i	i	-6	6	i
Clc1ccc(-c2nnc(-c3ccco3)o2)cc1	.	.	-2	-6	.
Cc1cccc(NC(=O)CS(=O)(=O)c2c[nH]c3ccccc23)c1C	.	.	1	9	.
CCn1c(C(=O)N2CCCC(C(=O)O)C2)cc2sccc21 (stereo unspecified)	i	i	-4	0	i
CCOC(=O)N1CCN(CCC(=O)Nc2ccc(C)c(Br)c2)CC1	.	.	3	2	.
O=C(Nc1ccc(Cl)cc1)C1CCCN(S(=O)(=O)c2cnc[nH]2)C1 (stereo unspecified)	.	.	0	0	.
COCCCN1C(=O)C(=O)/C(=C(/O)c2ccc(C)cc2)C1c1ccccc1 (stereo unspecified)	.	.	0	-2	.
CCn1c(CSc2ncccn2)nnc1SCC(=O)N1c2ccccc2CC1C (stereo unspecified)	i	i	0	4	i
COC(=O)NCc1ccc(CNC(=O)OC)cc1	.	.	-8	-2	.
O=C(CCn1c(=O)[nH]c2ccccc2c1=O)N1CCN(c2ccc(Cl)cc2)CC1	.	.	2	2	.
CCN=C1SC(CC(=O)Nc2ccc(C(F)(F)F)cc2)C(=O)N1CC (stereo unspecified)	.	.	-10	-5	.
CCC(Sc1nc2c(c(=O)[nH]1)CCC2)C(=O)Nc1cccc(OC)c1 (stereo unspecified)	.	.	62*	-2	.
CC1CCc2cc(F)ccc2N1C(=O)CCC(=O)O (stereo unspecified)	.	.	-6	6	.
COc1ccc(CCNC(=O)C2CCCN(S(=O)(=O)c3cnc[nH]3)C2)cc1OC (stereo unspecified)	.	.	-2	-3	.
CCCSc1nc2c(c(=O)[nH]c(=O)n2C)n1CCc1ccccc1	i	i	-3	1	i
CCC(C)NC(=O)CNC(=O)Cn1c(C)cc2ccccc2c1=O (stereo unspecified)	.	.	-10	-12	.
O=C(N1CCN(c2ccccc2F)CC1)C12CC3CC(CC(C3)C1)C2	i	i	-1	-9	i
CCOC(=O)CC(=O)CSc1nnc(Cn2c(=O)sc3ccccc32)n1C	.	.	9	0	.
CN1CCN(C(=O)c2ccc3c(c2)NC(=O)C(N2CCOCC2)S3)CC1 (stereo unspecified)	.	.	-4	3	.
O=C(C1CCCN(S(=O)(=O)c2ccc(Br)s2)C1)N1CCCCCC1 (stereo unspecified)	i	i	2	6	i

Structural class, the entries above with a thiophene ring, fused or not
SMILES	VCAM-1 down imaging	VCAM-1 augmentation	FPR ligand	FPRL1 ligand	VCAM-1 inhibition
CC(=O)C1=C(O)C(=O)N(c2nnn(C)n2)C1c1cccs1 (stereo unspecified)	.	.	-6	-2	.
CCN(CC)c1ncnc2sc(C(=O)N3CCN(c4ccccc4)CC3)c(C)c12	.	.	1	0	.
CCn1c(C(=O)N2CCCC(C(=O)O)C2)cc2sccc21 (stereo unspecified)	i	i	-4	0	i
O=C(C1CCCN(S(=O)(=O)c2ccc(Br)s2)C1)N1CCCCCC1 (stereo unspecified)	i	i	2	6	i

Carrying on:
SMILES	VCAM-1 down imaging	VCAM-1 augmentation	FPR ligand	FPRL1 ligand	VCAM-1 inhibition
CCN1C(=O)c2ccccc2S(=O)c2ccc(C(=O)NCCCN3CCCC3=O)cc21 (stereo unspecified)	.	.	-4	-1	.
c1ccc2c(c1)nc(NC1CCCCC1)c1nncn12	i	i	-2	-6	i
Cc1cc(C)cc(-c2nc(-c3ccncc3)no2)c1	.	.	-12	-4	.
COc1ccccc1N1CCN(CCCNC(=O)Nc2ccccc2)CC1	i	i	1	-4	i
CCn1cc(C(=O)NCC2CCCO2)c2cc(OC)c(OC)cc2c1=O (stereo unspecified)	.	.	-15	-9	.
Cc1ccc(N2C(N)=NC(N)=NC2(C)C)c(C)c1	.	.	-5	0	.
CC1CCN(C(=O)CCNS(=O)(=O)c2ccccc2)CC1	i	i	-4	-3	i
CCn1cc(C(=O)NCCCN2CC(C)CC(C)C2)c2cc(OC)c(OC)cc2c1=O (stereo unspecified)	.	.	-26	5	.
CCn1cc(C(=O)NCCCN(C)c2ccccc2)c(=O)c2cc(S(=O)(=O)N(C)C)ccc21	.	.	0	-3	.
CC1CN(C(=O)c2ccc3c(c2)OCO3)OC(c2ccccc2)O1 (stereo unspecified)	.	.	4	6	.
COc1ccc(C2C(C(=O)Nc3cccnc3)=C(C)Nc3nc(-c4ccco4)nn32)cc1 (stereo unspecified)	.	.	-4	-4	.
COC(=O)c1cc2sccc2n1CC(=O)Nc1ccc(OC)c(OC)c1OC	.	.	-1	-7	.
COc1ccc(OC)c(N2C(N)=NC(N)=NC23CCCC3)c1	.	.	4	4	.
Cc1cc(-c2ccco2)n(CC(=O)NCCCc2ccccc2)n1	.	.	7	1	.
CCN(CC)S(=O)(=O)c1ccc(C(=O)Nc2ncn(Cc3ccccc3)n2)cc1	.	.	1	-24	.
C=CCOC(=O)C1=C(C)OC(N)=C(C#N)C1c1ccc2c(c1)OCO2 (stereo unspecified)	i	i	5	2	i
N#CC1=C(N)Oc2n[nH]c(-c3ccc(F)cc3)c2C1c1cccnc1 (stereo unspecified)	.	.	-3	2	.
O=C(NCCCN1CCN(C2CCCCC2)CC1)Nc1ccccc1C(F)(F)F	.	.	1	19	.
COc1ccc2nc(NC(=O)C(NS(=O)(=O)c3cccs3)C(C)C)sc2c1 (stereo unspecified)	i	i	-2	0	i
Nn1c(CSc2nc3ccccc3o2)nnc1CSc1nc2ccccc2o1	i	i	7	14	i
CCOC(=O)CSC1=C(C#N)C(c2ccc(F)cc2)C(C(C)=O)=C(C)N1 (stereo unspecified)	.	.	-10	1	.
COc1cc(C(=O)NCCC(=O)NCCN2CCCCCC2)cc(OC)c1OC	.	.	-4	0	.
COc1ccccc1NC(=O)c1oc2ccccc2c1NC(=O)c1ccco1	.	.	4	-1	.
Cc1ccc(-c2nc(=S)c3c(n2Cc2ccco2)CCCC3)cc1	i	i	8	-38	i
COc1cccc(C(=O)Nc2ccc3nc(N4CCOCC4)cc(C)c3c2)c1	.	.	-3	0	.

Some values from above:
COCCCN1C(=O)C(=O)/C(=C(/O)c2ccc(C)cc2)C1c1ccccc1 (stereo unspecified) in FPR ligand: 0
CCN1C(=O)c2ccccc2S(=O)c2ccc(C(=O)NCCCN3CCCC3=O)cc21 (stereo unspecified) in FPR ligand: -4
O=C(OCc1ccc2c(c1)OCO2)c1ccc(S(=O)(=O)N2CCCCC2)cc1 in FPR ligand: 1
CCN(CC)c1ncnc2sc(C(=O)N3CCN(c4ccccc4)CC3)c(C)c12 in FPR ligand: 1
CCN(CC)S(=O)(=O)c1ccc(C(=O)Nc2ncn(Cc3ccccc3)n2)cc1 in FPRL1 ligand: -24

Carrying on:
SMILES	VCAM-1 down imaging	VCAM-1 augmentation	FPR ligand	FPRL1 ligand	VCAM-1 inhibition
CN(CC(=O)NCCN1CCCCCC1)S(=O)(=O)c1cccc2nsnc12	.	.	-1	3	.
COCCCN1C(=O)C(=O)/C(=C(/O)c2ccc(OC)cc2C)C1c1cccnc1 (stereo unspecified)	.	.	28	28	.
CS(=O)(=O)N1CCc2cc(S(=O)(=O)Nc3ccc4oc5c(c4c3)CCCC5)ccc21	i	i	6	-4	i
COc1cccc(NC(=O)CN2CCN(c3ccccc3F)CC2)c1	i	i	-1	30	i
COc1ccc(CC(=O)Nc2c3c(nn2-c2ccccc2C)CS(=O)C3)cc1 (stereo unspecified)	.	.	3	2	.
COC(=O)c1cc(NC2c3ccccc3C(=O)N2CCN2CCOCC2)cc(C(=O)OC)c1 (stereo unspecified)	.	.	7	6	.
Cc1cccc(N2CCN(C(=O)c3cn(C)c(=O)c4c3c3ccccc3n4C)CC2)c1C	.	.	-4	-7	.
COc1cc(OC)cc(-n2nnnc2SCC(=O)N2CCCC2)c1	i	i	-2	-2	i
O=C(C1=C(O)C(=O)N(CCN2CCOCC2)C1c1cccnc1)c1cc2ccccc2o1 (stereo unspecified)	.	.	11	8	.
CCOC(=O)CC(=O)Nc1cc(Cl)ccc1O	.	.	2	2	.
CCOc1ccccc1NC(=O)Cn1c(=O)n(CCC(=O)NC2CCCC2)c(=O)c2ccccc21	.	.	1	6	.
COc1ccc(-c2nnn(Cc3nc(N)nc(N4CCCCC4)n3)n2)cc1	.	.	1	-1	.
Cc1ccc(NC(=O)CN(c2ccc3c(c2)OCO3)S(=O)(=O)c2c(C)n[nH]c2C)cc1	i	i	3	0	i
CCc1cc2c(=O)c(-c3cnn(-c4ccccc4)c3)c(C)oc2c(CN2CCCCC2)c1O	.	.	-6	-5	.
CCOC(=O)N1CCN(C(=O)CSc2nnc(Cn3c(=O)sc4ccccc43)n2C)CC1	.	.	-3	3	.
Cc1cc(C)n(-c2nc3ccccc3n3nnnc23)n1	.	.	3	-1	.
CCN1CCCC1CN=Cc1c(O)n(-c2ccccc2)c(=O)c2ccccc12 (stereo unspecified)	i	i	1	11	i
O=C1c2ccccc2C(O)(Cc2ccccc2)N1c1ccc2c(c1)OCO2 (stereo unspecified)	.	.	11	8	.
Cc1nn(-c2ccc(F)cc2)c2nc(N)c(C#N)c(-c3cccs3)c12	i	i	-3	-2	i
